Assay outcomes: PubChem BioAssay, National Center for Advancing Translational Sciences (NCATS)
TRPML1 ag = qHTS for Agonists of the Human Mucolipin Transient Receptor Potential 1 (TRPML1). TRPML1-expressing cells, Ca2+ dye fluorescence, FDSS; host cell line not named in the record; reference of the full effect not given here. hit rate 0.12% among 410,000. AID 624414, 2012. activation, % (test concentration not listed); in the data active = activation above about 50%; inconclusive = about 30% to 50%; inactive = below about 30%; note: 0% is about no effect; the text of the record puts the active cut at 80%
Target sequence (Q9GZU1 whole entry, looked up): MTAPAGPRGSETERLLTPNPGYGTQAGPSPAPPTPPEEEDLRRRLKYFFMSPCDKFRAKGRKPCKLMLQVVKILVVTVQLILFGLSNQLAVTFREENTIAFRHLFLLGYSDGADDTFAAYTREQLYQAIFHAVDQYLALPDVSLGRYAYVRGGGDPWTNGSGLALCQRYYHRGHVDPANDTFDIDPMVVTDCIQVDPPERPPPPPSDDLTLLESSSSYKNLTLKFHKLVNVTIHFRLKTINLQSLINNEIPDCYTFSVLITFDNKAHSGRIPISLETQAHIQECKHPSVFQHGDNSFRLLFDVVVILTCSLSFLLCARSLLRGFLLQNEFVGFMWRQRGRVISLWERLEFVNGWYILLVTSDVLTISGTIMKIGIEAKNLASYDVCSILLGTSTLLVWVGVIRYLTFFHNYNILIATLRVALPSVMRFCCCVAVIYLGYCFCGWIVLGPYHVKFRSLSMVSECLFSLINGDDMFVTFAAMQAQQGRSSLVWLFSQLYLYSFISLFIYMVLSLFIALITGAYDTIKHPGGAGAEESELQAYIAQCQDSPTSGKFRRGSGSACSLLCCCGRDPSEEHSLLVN
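TRPML1-DL cells, Tet-induced overnight (~16 h, 37 degrees C), loaded 45-90 min at room temperature with Ca8 no-wash calcium dye plus quencher. FDSS fluorescence: 10 s baseline, compound pin-transfer, 110 s agonist read, then EC80 54-4 (4uM final) and 110 s antagonist read.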
Six1-Eya2 inh = qHTS Assay for Inhibitors of the Six1/Eya2 Interaction. Homeobox protein SIX1 (Homo sapiens) + Protein phosphatase EYA2 (Homo sapiens), …. AlphaScreen GST-Six1/His-Eya2 binding, biochemical; active compounds read low; control for the full effect not named in the record. activity change, % (concentration not given with the values). hit rate 0.56% among 360,000; in the data active = activity change below about -65%; inconclusive = about -30% to -65%; inactive = above about -30%; note: % is set by controls: 0 for no effect and ±100 for the full control effect
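Homogeneous AlphaScreen proximity assay pairing GST-Six1 with His-tagged Eya2 (added as 5X mix: 250 nM and 500 nM) in 50 mM Tris pH 8.0, 300 mM NaCl, 1 mM TCEP. Glutathione donor and nickel acceptor beads; 1 h, 37 °C, dark.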
D2 agonist = Beta-Arrestin HTS for Positive Allosteric Modulators of the Human D2 Dopamine Receptor: Agonists. D(2) dopamine receptor (Homo sapiens), P14416. DiscoveRx PathHunter D2 beta-arrestin, luminescence, 90 min; 100% = 57 uM dopamine signal. activation, % (concentration not given with the values). hit rate 0.084% among 360,000. AID 624465, 2012; in the data active = activation above about 40%; inconclusive = about 15% to 40%; inactive = below about 15%; note: compound concentration not given in the record; the text of the record calls up to 30% inactive
Target sequence (P14416 whole entry, looked up): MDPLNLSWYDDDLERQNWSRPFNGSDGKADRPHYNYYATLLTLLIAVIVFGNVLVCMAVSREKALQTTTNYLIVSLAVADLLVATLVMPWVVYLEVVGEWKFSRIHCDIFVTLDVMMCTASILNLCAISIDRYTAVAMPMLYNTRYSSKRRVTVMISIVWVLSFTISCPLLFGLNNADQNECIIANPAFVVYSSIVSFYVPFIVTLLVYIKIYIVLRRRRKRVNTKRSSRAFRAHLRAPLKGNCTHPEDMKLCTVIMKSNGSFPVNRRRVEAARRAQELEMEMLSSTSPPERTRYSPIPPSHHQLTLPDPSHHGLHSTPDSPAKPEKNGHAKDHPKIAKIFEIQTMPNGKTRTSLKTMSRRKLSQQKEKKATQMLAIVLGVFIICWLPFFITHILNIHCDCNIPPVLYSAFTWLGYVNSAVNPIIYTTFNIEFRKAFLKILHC
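DiscoveRx PathHunter D2 beta-arrestin cells (2,100/well) attached overnight, then compound-stimulated 90 min at 37 C in HBSS/10 mM HEPES/0.1% Tween-20 buffer; beta-galactosidase complementation read by luminescence after 1 h at ambient temperature. Dopamine 57 uM final (EC100) as control.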
CtBP-E1A blk = qHTS Assay for Inhibitors of the CtBP/E1A Interaction. CtBP / adenovirus E1A interaction (AlphaScreen). AlphaScreen GST-E1A/His-CtBP binding, 1536-well; active compounds read low; control for the full effect not named in the record. activity change, % (concentration not given with the values). hit rate 0.49% among 340,000. AID 651724, 2012; in the data active means activity change below about -65%; inconclusive means about -30% to -65%; inactive means above about -30%; note: % is set by controls: 0 for no effect and ±100 for the full control effect
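AlphaScreen with 125 nM GST-E1A and 125 nM His-CtBP (5X stocks) in Tris pH 8.0, 300 mM NaCl, BSA, Tween 20, TCEP. Compounds preincubated 2 h at 37 deg C, then glutathione donor/nickel acceptor beads added for 1 h at 37 deg C in dark.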
D2 PAM = Beta-Arrestin HTS for Positive Allosteric Modulators of the Human D2 Dopamine Receptor: Potentiators; AID 624464, 2012; D(2) dopamine receptor (Homo sapiens), P14416; potentiation, % (concentration not given with the values); DiscoveRx D2 beta-arrestin cells, luminescence, 90 min; 100% = 57 uM dopamine signal; hit rate 0.23% among 360,000; active = potentiation of 50% or more; inconclusive = 30% to 50%; inactive = 30% or less;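 note: compound concentration not given in the record; tested on top of an EC20 dose of dopamine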
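PathHunter beta-arrestin assay in DiscoveRx D2 cells. Compounds were added with an EC20 of dopamine (50 nM final) for 90 min at 37 deg C. Luminescence was read 1 h after detection reagent, with 57 uM dopamine as the EC100 control.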
PINK1 modulator = A Quantitative High throughput Screen to Identify Chemical Modulators of PINK1 Expression; Potency, µM (highest dose often 76.6 µM), inactives show at the top dose activation (PINK1 increase), usual class: activators; AID 624263, 2012; PINK1 immunofluorescence, high-content cytometry, 24 h; hit rate 0.2% among 410,000; active = well fitted activation curve with a large enough effect; inconclusive = small, poorly fitted or top-dose-only effect; inactive = flat fitted curve, though single readings scatter; cell line not stated here;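 note: potency is the fitted concentration of half-maximal effect; % of control where 0% means no effect; nearly all actives have a fitted effect of over 65% in size; a mitochondrial uncoupler was the plate control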
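Readout is PINK1 immunofluorescence, quantified alongside mitochondrial, cell and nuclear markers by laser-scanning microplate cytometry. Cells from a stable line were exposed to compound titrations (5 concentrations) for 24 hours, with CCCP controls.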
Numbers without * were called inactive; ? = inconclusive; . = no result given; & = joins results of further samples; [ ] = dose if it differs, or a comment.

Compound	TRPML1 ag	Six1-Eya2 inh	D2 agonist	CtBP-E1A blk	D2 PAM	PINK1 modulator
c1ccc(-c2cc3c(N4CCCCC4)ncnc3s2)cc1	2.9	12	2.4	12	1	0.1%
Cc1cc(C)cc(OCC(=O)N/N=C/c2ccccn2)c1	.	-14	-21	-4	-9	-1.3%
CCCCCCCC[n+]1cccc(C(=O)N(CC)CC)c1	0.4	6	-3.2	.	-11	2.0%
CC(C)(C)C(=O)Nc1nc2c(c(=O)[nH]1)CCCC2	-0.6	1	-0.2	-8	-2	0.2%
CC(Cc1cccs1)NC(=O)Nc1ccc(Cl)cc1 (configuration not stated)	0.0	-5	-0.2	1	-9	26%
O=C(NCCN1CCOCC1)c1ccc(NC(=O)C2COc3ccccc3O2)cc1 (configuration not stated)	-0.5	11	1.0	5	-3	0.9%
COc1ccc(OC)c(NC(=O)c2cccc(N3C(=O)C4C5CCC(C5)C4C3=O)c2)c1 (configuration not stated)	2.9	5	11	-2	5	1.1%
NC(=O)c1cc2ccccc2o/c1=N\NC(=O)c1ccc(F)cc1	1.0	2	1.3	-25	0	-1.7%
CCCC(=O)NC(=S)Nc1cccc(-c2nc3ncccc3o2)c1	-0.7	3	3.0	0	4	0.9%
CCOC(=O)CNC(=O)c1ccccc1Br	1.0	0	1.4	4	-11	6.6%
C=CCNS(=O)(=O)c1ccc(C(=O)OCc2cc(=O)oc3cc(OC)ccc23)cc1	0.4	0	-1.3	-2	-3	7.4%
CSc1ccc(CN2CCN(C(=O)c3ccc([N+](=O)[O-])cc3)CC2)cc1	-0.8	-2	3.1	2	-10	0.2%

Single values from the list:
Value of `O=C(NCCN1CCOCC1)c1ccc(NC(=O)C2COc3ccccc3O2)cc1` (configuration not stated) in TRPML1 ag: -0.5
Value of `CC(Cc1cccs1)NC(=O)Nc1ccc(Cl)cc1` (configuration not stated) in PINK1 modulator: 26%
Value of `NC(=O)c1cc2ccccc2o/c1=N\NC(=O)c1ccc(F)cc1` in TRPML1 ag: 1.0

(cont.)
Compound	TRPML1 ag	Six1-Eya2 inh	D2 agonist	CtBP-E1A blk	D2 PAM	PINK1 modulator
CCc1ccccc1NC(=O)CNC(=O)c1cc(C2CC2)nn1-c1ccccc1	0.9	-4	2.4	-11	1	-0.5%
Cn1c(SCCOc2ccc(Cl)cc2)nnc1-c1ccncc1	-1.2	-6	-1.3	-10	-12	2.0%
COc1ccc(Sc2cnn(-c3ccccc3)c(=O)c2Cl)cc1	0.0	3	-1.8	3	-8	-0.6%
NS(=O)(=O)c1ccc(S(=O)(=O)N2CCN(C3CCCC3)CC2)cc1	-0.1	7	1.2	0	0	-1.0%
O=C(NCc1ccc2c(c1)OCO2)C1CC(=O)N(C2CCCC2)C1 (configuration not stated)	-0.3	2	-0.2	0	22	0.6%[38.3 µM]
CSc1ccccc1NC(=O)CN(C)S(=O)(=O)c1ccc(F)cc1	1.2	-1	-2.3	5	-12	.
O=C(COC(=O)COc1ccccc1)Nc1ccc(Br)cc1Br	-0.2	-1	-3.9	4	-3	-0.3%
N#Cc1c(N2CCCCC2)nc(N)c2c(N)nc3c(c12)CC(CCl)O3 (configuration not stated)	-0.4	-1	-0.9	1	-2	7.1%
CCCOc1cccc(C(=O)NC(=S)Nc2cccc(NC(=O)c3ccccc3Cl)c2)c1	-0.4	9	-2.2	16	-19	5.7%
Cc1ccc(C2=Nc3ccccc3N=C(C(Cl)Cl)C2)cc1	-0.1	-7	-5.7	-17	-17	0.3%
NC(=O)/C(=C/c1ccco1)NC(=O)c1ccc(Br)o1	6.4	-2	1.5	-4	5	-1.0%
NC(Cc1ccc(F)cc1)c1csc(Nc2cc(Oc3ccccc3)ncn2)n1 (configuration not stated)	2.6	-19	12	-26	-6	-1.2%

Later entries.
Compound	TRPML1 ag	Six1-Eya2 inh	D2 agonist	CtBP-E1A blk	D2 PAM	PINK1 modulator
COc1cccc(CN(C)CC(=O)NCc2ccccc2Cl)c1OC	2.4	0	-0.6	-17	-20	-0.6%
Cc1ccc(N(C(=O)c2ccccn2)C2(C(=O)NC3CCCC3)CCCCC2)cc1	0.4	1	1.0	-3	-7	-1.4%
O=C(NCc1ccccn1)C1COc2ccccc2O1 (configuration not stated)	0.1	-4	2.8	-5	-11	-0.6%
C[C@H](O)[C@@H]1C(=O)N2CCc3c([nH]c4ccccc34)[C@@H]2C[C@@H]1N(C)C(=O)Nc1ccc(F)cc1	0.3	-10	-3.1	-28	1	0.9%
OC(CNCC1COc2ccccc2O1)COc1ccccc1F (configuration not stated)	0.0	-1	0.4	-1	-16	2.2%
CCC(C)NC(=O)c1ccccc1NC(=O)CN(c1cc(C)ccc1OC)S(C)(=O)=O (configuration not stated)	2.0	-6	-2.8	.	-9	-1.6%
CC(C)CN(C(=O)c1ccc2c(c1)OCO2)C1CCS(=O)(=O)C1 (configuration not stated)	0.0	0	-3.0	12	-1	4.7%
NC(=O)CNC(=O)[C@@H]1CC2(CC(c3ccccc3)=NO2)CN1C(=O)c1ccc(Br)cc1 (some centres not stated)	0.0	4	-2.4	2	-12	-0.7%
CC(C)=Cc1c(O)nc2ccccn2c1=O	0.1	9	-0.3	14	-5	-0.1%
CCc1nnc(NCn2nc(C)cc2C)s1	-0.4	3	0.9	5	19	1.0%
OC(CNCc1ccccn1)c1ccccc1 (configuration not stated)	0.2	?	2.0	-14	-6	0.2%
CCc1nn(CCCC(=O)NCc2ccc(OC(C)C)cc2)c(=O)c2cc3occc3n12	3.0&1.5	-1	5.6	-1	-14	0.3%&1.7%

Additional entries follow:
Compound	TRPML1 ag	Six1-Eya2 inh	D2 agonist	CtBP-E1A blk	D2 PAM	PINK1 modulator
NC(N)=NCC(O)CN(c1ccccc1)c1ccccc1 (configuration not stated)	-1.2	9	-4.5	-10	-4	3.1%
O=C(COC(=O)CCC1CCCC1)Nc1ccccc1Br	1.1	27	1.2	32	0	3.9%
Cc1ccc(C(c2nnnn2C2CCCCC2)N2CCc3ccccc32)cc1 (configuration not stated)	2.3	-24	-2.8	?	-16	4.9%
Cc1ccccc1C(=O)N1CCN(c2ncccn2)CC1	0.0	8	-3.7	2	-1	-1.1%
COc1ccccc1/C=C/C(=O)Nc1ccc(S(=O)(=O)Nc2cc(C)nc(C)n2)cc1	-0.5	-12	2.3	-6	-1	0.1%
COc1cc(Cl)c(C)cc1NC(=O)CN(C)C1CCS(=O)(=O)C1 (configuration not stated)	-0.1	10	-1.7	.	-6	2.6%
O=C(NCSc1ccncn1)c1ccccc1	-0.2	-1	-3.2	-1	-16	2.5%[38.3 µM]
CCCSc1nnc(NC(=O)CSc2sc3c(O)cc(=O)[nH]c3c2C#N)s1	0.2	-24	-2.3	-2	0	1.9%
Clc1ccc(-c2ccc(CNCC3CCCO3)o2)cc1 (configuration not stated)	0.6	-15	3.2	-1	-8	1.8%
COc1cc(NC(=O)CSc2nnc(-c3ccncc3)o2)cc(OC)c1OC	-0.1	3	-6.0	-1	-1	0.2%
COc1ccc(Cc2nnc(NS(=O)(=O)c3ccc([N+](=O)[O-])cc3)s2)cc1	-0.2	0	4.5	-1	7	-2.8%
Cc1ccc(OCC(=O)N(Cc2ccco2)c2c(N)n(Cc3ccccc3)c(=O)[nH]c2=O)cc1C	0.5	-2	2.1	0	2	7.4%

The list continues:
Compound	TRPML1 ag	Six1-Eya2 inh	D2 agonist	CtBP-E1A blk	D2 PAM	PINK1 modulator
Cc1ccc(NC(=O)CSc2ccc3c(c2)OCCO3)nc1	1.3	-5	-0.5	5	4	0.9%
COc1cc(Cl)c(C)cc1NC(=O)COc1ccc(C)nc1[N+](=O)[O-]	0.8	-4	0.3	5	-12	6.6%
COc1ccc(C(=O)C2CCCN(Cc3ccc4nonc4c3)C2)c(OC)c1 (configuration not stated)	1.6	3	-2.3	0	-21	0.6%
CCn1c(=O)cc(NC2=NCC(C)CN2c2cccc(Cl)c2)n(C)c1=O (configuration not stated)	1.2	-1	-2.9	2	-7	1.4%
O=C1NC(=O)C(c2ccccc2[N+](=O)[O-])=C1Nc1ccc(O)c(Cl)c1	-0.5	3	-1.0	0	-8	0.8%
O=c1[nH][nH]c2c1[C@H](c1ccc(Cl)cc1)O[C@H](C1CCCCC1)C2	-0.3	2	.	5	.	4.4%
CC(=O)c1c(C)[nH]c(C(=O)OCC(=O)NCCCc2ccccc2)c1C	4.0	-1	1.9	-7	0	2.4%
CCn1cc(C(=O)N2CCc3ccccc32)c(=O)c2cc(S(=O)(=O)N(C)C3CCCCC3)ccc21	-0.8	-1	-3.4	-15	-27	2.6%
CC(C)(C)C(=O)Nc1nnc(-c2ccccc2)c(-c2ccccc2)n1	-0.1	-16	3.3	-12	-3	1.3%
Brc1cc(Br)cc(CN2CCSCC2)c1	1.1	4	-0.3	-13	-3	6.3%
Cc1nc(-c2cc(-c3nc(-c4ccc(C(F)(F)F)cc4)no3)no2)cs1	0.1	-7	-2.8	-6	0	4.5%
O=C(NC1CCCCC1)C(c1ccccn1)N(C(=O)c1csnn1)c1ccccc1F (configuration not stated)	-0.7	2	1.9	4	-9	-1.4%

More records:
Compound	TRPML1 ag	Six1-Eya2 inh	D2 agonist	CtBP-E1A blk	D2 PAM	PINK1 modulator
O=C(O)/C=C/C(=O)N1CCN(c2cccc(Cl)c2)CC1	1.6	3	-0.3	-24	7	0.3%
COc1cccc(OC)c1C(=O)Nc1ccc2c(c1)N(S(=O)(=O)c1cccs1)CCC2	-1.2	-5	-0.1	-5	-8	-2.0%
O=C(Nc1ccc2c(c1)OCCO2)c1cccc(S(=O)(=O)N2CCOCC2)c1	-0.7	-9	-3.0	-10	-9	?
Cc1ccc(NC(=O)O/N=C/c2cccc([N+](=O)[O-])c2)cc1	0.5	2	-0.5	7	-7	-1.2%
O=[N+]([O-])c1cc(Cl)ccc1N1CCN(c2cccc(C(F)(F)F)c2)CC1	1.6	?	-1.2	?	-4	-1.2%
Cc1ccc(-c2nc(CS(=O)CC(=O)NC3CCCC3)c(C)o2)cc1 (configuration not stated)	-0.6	6	-3.0	-1	-6	1.3%
O=C(CN1C(=O)NC2(CCCC2)C1=O)NNC(=O)c1ccc(Cl)cc1	0.1	2	-1.3	.	-1	-0.9%
CCOc1cc(NC(=S)NCc2ccccc2)c(OCC)cc1NC(=O)C(C)C	1.4	20	2.2	-4	-4	11%
O=C(CSc1nc2ccccc2s1)Nc1ncccn1	1.6	0	-2.9	0	-22	-1.9%
COc1ccc(C(=O)/C=C/C(=O)N(Cc2ccccc2)C(C(=O)NC2CCCCC2)c2ccncc2)c(O)c1 (configuration not stated)	1.4	-13	-6.8	-4	-9	5.0%
